GALR2 agonist – GALR2 receptor agonists, primary screen, cell-based | AID 803, 2007 | actives 0.48% (n = 140,000) | activation, %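 (tested at 5 µM)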 | GALR2-expressing cells, agonist activation read-out | Galanin receptor type 2 (Homo sapiens), O43603;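 active = above mean plus 3 SD of all compounds, about 5% in these data, not always enough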;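 also: 0% = vehicle buffer wells and 100% = reference agonist at full effect; tested in CHO reporter cells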
HSV replic up – enhancers of HSV replication in host cells, fold increase, host cell viability; HSV replication augmentation in cells; AID 1956, 2009; actives 0.005% (n = 220,000); maximum fold increase;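 active = peak rise of 1.5-fold or more in the series; tested in PC3 cells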;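 also: first round at 10 µM; read as green reporter fluorescence; hits show the peak of a series up to 25 µM; 1 = signal of infected wells without compound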
Insulin prom inh – inhibitors of insulin promoter-driven GFP, primary screen, imaging, TRM-6 cells (human fetal islet line), eGFP reporter, cell count; reporter expression induced with tamoxifen; inhibition, % at 2 µM; AID 1273, 2008; actives 0.9% (n = 130,000);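 active = inhibition above the mean plus 3 SD, with well images judged a real hit on visual review, cut at about 60% in these data, passing the limit was not always enough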
PKD1 kinase inh – inhibitors of human PKD1 kinase, biochemical, fluorescence polarization; Serine/threonine-protein kinase D1 (Homo sapiens), Q15139; PKD1 kinase fluorescence polarization assay; inhibition, %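 (about 10 µM by stock and volumes)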; actives 0.056% (n = 200,000); AID 797, 2007;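 active = inhibition of 50% or more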;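 also: controls were vehicle for no effect and a reference inhibitor for full effect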
Target sequence (Q15139 whole entry, looked up): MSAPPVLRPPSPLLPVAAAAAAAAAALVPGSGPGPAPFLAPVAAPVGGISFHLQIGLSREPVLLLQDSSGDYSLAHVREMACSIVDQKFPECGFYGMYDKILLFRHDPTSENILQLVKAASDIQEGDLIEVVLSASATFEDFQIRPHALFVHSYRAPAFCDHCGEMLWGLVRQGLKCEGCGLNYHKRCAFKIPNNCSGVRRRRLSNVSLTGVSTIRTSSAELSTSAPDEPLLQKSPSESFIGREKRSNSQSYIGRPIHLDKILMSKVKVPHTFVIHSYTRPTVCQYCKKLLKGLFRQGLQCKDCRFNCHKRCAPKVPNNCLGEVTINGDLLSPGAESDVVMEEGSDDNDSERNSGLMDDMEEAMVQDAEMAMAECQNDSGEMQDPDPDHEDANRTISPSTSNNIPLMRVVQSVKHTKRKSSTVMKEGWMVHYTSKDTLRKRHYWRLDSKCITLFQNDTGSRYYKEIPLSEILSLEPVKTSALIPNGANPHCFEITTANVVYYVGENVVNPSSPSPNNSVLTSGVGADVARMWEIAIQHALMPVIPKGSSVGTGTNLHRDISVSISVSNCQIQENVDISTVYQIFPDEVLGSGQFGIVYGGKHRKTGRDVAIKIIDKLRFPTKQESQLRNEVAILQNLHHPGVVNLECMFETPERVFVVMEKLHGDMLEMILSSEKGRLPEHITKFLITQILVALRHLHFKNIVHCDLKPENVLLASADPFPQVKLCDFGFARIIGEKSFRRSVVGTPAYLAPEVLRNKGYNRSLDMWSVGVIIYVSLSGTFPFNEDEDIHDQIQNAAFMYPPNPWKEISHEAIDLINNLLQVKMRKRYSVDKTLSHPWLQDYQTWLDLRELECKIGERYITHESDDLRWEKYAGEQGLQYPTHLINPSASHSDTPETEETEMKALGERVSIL
RGS16-Gao HTS – modulators of RGS16 binding to Galphao, primary screen, biochemical, human proteins, multiplexed bead flow cytometry | bead-based flow cytometry RGS16-Galphao binding, fluorescence; actives lie on both sides | Regulator of G-protein signaling 16 (Homo sapiens) + Guanine nucleotide-binding protein … | actives 0.38% (n = 220,000) | binding response (% of control), % at 10 µM | AID 1441, 2008;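 active = below 25% or above 175%, edge rows of some plates excepted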;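 also: Galphao activated by GDP with aluminum fluoride before binding; 100% = wells without compound and 0% = beads without RGS; some results beyond the cut were filed as inactive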
Insulin prom inh cell count – recorded beside Insulin prom inh, whose call it bears; normalized cell count, %; measured here: cell count, toxicity; reference of the scale not given here;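 cells exposed to compound for 48 h; stained nuclei by imaging scaled within each plate; lower means fewer cells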
HSV replic up primary fold – further read-out of HSV replic up, marked with its call; fold increase; compound at 10 µM; measured here: primary screen fold increase 10 uM; tested in PC3 cells;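 GFP signal in the first replicate; 1 = infected wells without compound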
Numbers without * were called inactive; i = inactive; · = not tested or not shown. An unsorted share of the library. Share with any hit: about 1.3%.

Second line of a record: HSV replic up primary fold, Insulin prom inh, GALR2 agonist, RGS16-Gao HTS, Insulin prom inh cell count, HSV replic up, PKD1 kinase inh
1. CCN1CCN(C(=O)c2cc3cc([N+](=O)[O-])ccc3oc2=O)CC1
 : 0.96, ·, ·, 87.6, ·, i, -2.9
2. CN(C)c1ccc(/C=N/NC(=S)NCc2ccco2)cc1
 : 0.9, -36.5, 0.5, 108.5, 93.8, i, 0.1
3. CCOC(=O)c1[nH]c2ccc(OC)cc2c1NC(=O)CN1CCC2(CC1)OCCO2
 : 0.53, -31.2, -1.5, 98.6, 96.7, i, 7.6
4. N#Cc1ccc(C(=O)CSc2n[nH]c(=O)n2-c2cccnc2)cc1
 : 1.16, ·, ·, 103.8, ·, i, ·
5. O=c1c(C(c2ccc(O)cc2)c2c(O)nc3n(c2=O)CCS3)c(O)nc2n1CCS2
 : ·, 4.7, 1.0, 90.2, 100.0, ·, -7.6
6. COc1cccc(NC(=O)COc2ccccc2C(N)=O)c1
 : 0.97, 61.9, -1.0, 93.1, 98.9, i, -13.2
7. Cc1ccc(C(=O)Cn2c(N3CCOCC3)nc3c2c(=O)n(C)c(=O)n3C)cc1
 : ·, 7.1, -1.7, 95.8, 128.3, ·, -13.3
8. Cc1cc(-c2nc3ccccc3o2)c2ccccc2n1
 : 0.96, ·, -0.9, 89.5, ·, i, -3.7
9. CCOC(=O)C1=C(C)C2C3C(=O)N(c4ccccc4C)C(=O)C3C1(C)C1C(=O)N(c3ccccc3C)C(=O)C21 (stereo unspecified)
 : 0.99, 0.0, -1.1, 108.6, 103.5, i, -13.6
10. O=C(CSc1nc2ccccc2o1)N/N=C/c1ccccc1C(=O)O
 : 1.05, ·, ·, 102.8, ·, i, ·
11. CC(=O)C1=NOC(CNC(=O)c2c(-c3ccccc3Cl)noc2C)C1 (stereo unspecified)
 : 0.83, 12.9, -5.6, 92.8, 119.5, i, 4.4
12. c1ccc2c(CN3CCOCC3)c3ccccc3c(CN3CCOCC3)c2c1
 : 0.87, -33.3, -1.9, 105.0, 69.5, i, 1.3
13. Cc1ccc(S(=O)(=O)N2CCN(C(C)CC(=O)O)CC2)cc1 (stereo unspecified)
 : 0.94, ·, ·, 100.6, ·, i, -3.0
14. CCCC(=O)Nc1nnc(CCN2CCCCC2)s1
 : 0.76, -8.3, -1.3, 108.2, 141.2, i, -7.3
15. CCn1nc(NC(=O)c2ccccc2)c2cc3cccc(C)c3nc21
 : 0.82, ·, ·, 106.1, ·, i, ·
16. COc1cc(/C=C/c2sc3ccccc3[n+]2CCCS(=O)(=O)[O-])ccc1O
 : 1.23, ·, ·, 99.4, ·, i, 4.9
17. O=C(Nc1cccc2c1CCCC2)c1cc([N+](=O)[O-])cc([N+](=O)[O-])c1
 : 0.88, 6.7, 0.1, 105.6, 225.9, i, -4.5
18. CCOC(=O)c1oc2cc(O)ccc2c(=O)c1-c1ccc(OC)cc1
 : 0.86, -61.5, -0.6, 100.7, 129.9, i, -4.2
19. Cc1ccc(C)c(NC(=O)c2nnn(Cc3ccccc3)c2N)c1
 : 0.91, ·, -1.6, 103.2, ·, i, 1.7
20. O=C(N/N=C/c1ccc(Cl)cc1)C(=O)N1CCCCCC1
 : 0.94, 33.3, ·, 99.7, 123.9, i, -7.3
21. O=C(Nc1nc2ccc(S(=O)(=O)N3CCCC3)cc2s1)c1ccccn1
 : 0.93, ·, ·, 97.6, ·, i, -4.3
22. CCOc1ccc(N(CC(=O)NC2CCCCC2)C(=O)CNC(=O)c2ccco2)cc1
 : 1.02, -262.5, -1.9, ·, 77.4, i, -10.4
23. CN(C)S(=O)(=O)c1ccc(/C(O)=C2/C(=O)C(=O)N(Cc3cccnc3)C2c2ccncc2)cc1 (stereo unspecified)
 : 0.83, ·, 0.1, 95.6, ·, i, 12.8
24. CCC1Oc2ccc(C)cc2N(CC(=O)NCCN2C(C)CCCC2C)C1=O (stereo unspecified)
 : 1.06, -3.7, -1.5, 100.0, 83.1, i, 8.1
25. CC(C)n1cc(/C=C(\C#N)S(=O)(=O)c2ccccc2)c2ccccc21
 : 1.04, -8.6, 1.0, 97.6, 142.9, i, -3.4
26. CCOC(=O)c1[nH]c(C)c(C(=O)NCc2ccccn2)c1C
 : 1.09, 48.0, -0.6, 99.9, 119.7, i, 0.6
27. CC/C(=C\C1CCCCC1)C(NP(=O)(c1ccccc1)c1ccccc1)c1ccccc1 (stereo unspecified)
 : 0.85, -30.0, -0.9, 107.7, 103.8, i, 1.7
28. O=C(O)CCCC(=O)Nc1ccc(Br)cc1
 : 0.94, 54.0, -3.0, 109.0, 114.2, i, -4.4
29. COC(=O)c1sccc1N/N=C(\C)c1ccc(F)c(Cl)c1
 : 1.03, -9.9, -4.9, 110.0, 105.1, i, 1.6
30. Nc1nnc(CC(=O)N2CCCCC2)s1
 : 0.92, ·, -1.7, 111.8, ·, i, -0.8

New compounds follow.
Second line of a record: HSV replic up primary fold, Insulin prom inh, GALR2 agonist, RGS16-Gao HTS, Insulin prom inh cell count, HSV replic up, PKD1 kinase inh
31. O=C(NCc1ccc2c(c1)OCO2)c1ccc(Cl)nc1
 : 0.77, ·, ·, 103.4, ·, i, 5.2
32. CCOc1ccc(CCNC(=O)CSc2cc(=O)n(C)c3ccccc23)cc1OCC
 : 0.96, ·, 1.4, 99.9, ·, i, 2.4
33. Cc1ccc(-n2c(SCc3ccc(C(=O)O)cc3)nnc2-c2ccncc2)cc1
 : 0.98, ·, ·, 116.2, ·, i, ·
34. CCOC(=O)C1CCN(C(=S)Nc2ccc(Cl)cc2C)CC1
 : 0.94, 33.3, ·, 98.8, 106.6, i, -16.4
35. CCCOc1ccc2[nH]cc(C(=O)O)c(=O)c2c1
 : 1.09, ·, -1.0, 105.9, ·, i, 3.4
36. N#CNc1nc(O)cc(=O)[nH]1
 : 1.09, ·, ·, 95.0, ·, i, ·
37. O=C(Nc1cccc(S(=O)(=O)NCc2ccco2)c1)c1cc(-c2ccccc2)nc2ccccc12
 : 0.65, 14.3, -0.7, 97.1, 117.0, i, -6.5
38. Cc1nn2c(CN(C(=O)c3ccco3)c3ccccc3)nnc2c2ccccc12
 : ·, -23.7, -0.5, ·, 200.0, ·, -2.0
39. Cc1cc(C)c2c(=O)[nH]c(SCC(=O)Nc3ccc(N(C)C)cc3)nc2n1
 : 1.12, 31.4, -1.5, 101.5, 42.6, i, -7.7
40. CCc1ccc(C2=C/C(=C/c3cccnc3)C(=O)O2)cc1
 : 1.02, -17.2, 0.5, 105.0, 115.0, i, 2.6
41. CC1=NN(c2ccc(S(=O)(=O)O)cc2Cl)C(=O)C1
 : 1, 50.0, ·, 102.7, 100.9, i, 5.9
42. Cc1ccsc1/C=N/NC(=O)CC(=O)NCC(C)C
 : 0.87, 11.1, ·, 100.0, 122.7, i, 4.2
43. CC(C)Oc1ccc(CSC(=N)N)cc1
 : 0.77, 23.3, -1.6, 100.0, 92.8, i, -4.3
44. O=C(Cn1ncc(Cl)c(Cl)c1=O)N1CCc2ccccc21
 : 0.56, -430.8, ·, 96.3, 6.7, i, -0.8
45. Cc1nnc(NC(=O)c2ccc(Br)cc2)s1
 : 0.83, -23.9, -3.1, 103.5, 47.4, i, -5.8
46. CCOC(=O)c1ccccc1N/C=C/C(=O)c1cccs1
 : 1.01, -68.8, -0.8, 102.5, 111.5, i, 7.1
47. CCOc1ccccc1CN1CCN(CC2=Cc3cc(OC)ccc3OC2)CC1CCO (stereo unspecified)
 : 0.74, ·, ·, 106.4, ·, i, ·
48. Cc1cccc(N2CCN(Cc3nc(CC4CC4)no3)CC2)n1
 : 1.05, ·, ·, 105.0, ·, i, -8.0
49. Cc1ccnn1CC(=O)N/N=C/c1ccco1
 : 0.97, 38.9, -2.5, 99.0, 131.0, i, -11.6
50. CCc1ccccc1NC(=O)CCc1nc(-c2cccs2)no1
 : 1.03, ·, ·, 96.8, ·, i, 0.0
51. O=C(COC(=O)c1ccc2ccccc2n1)c1ccc(F)cc1
 : 0.98, -57.1, ·, 97.9, 104.4, i, -0.4
52. CC(=O)NCCN1C(=O)S/C(=C\c2cccs2)C1=O
 : 1.13, 35.3, ·, 95.6, 169.1, i, 3.2
53. CCN(CC)C(=O)CN(c1cc(Cl)ccc1OC)S(C)(=O)=O
 : 0.98, -25.0, -1.4, 98.1, 219.9, i, -5.6
54. N/C(=N\OC(=O)c1ccc(Cl)cc1Cl)c1ccccn1
 : 1.05, ·, ·, 107.2, ·, i, -0.5
55. CN(C)c1ccc(C(=O)Nc2nnc(C3=COCCO3)o2)cc1
 : 0.92, ·, ·, 102.1, ·, i, -4.1
56. N#C/C(=C\c1ccc(-c2ccc(S(=O)(=O)N3CCOCC3)cc2)o1)C(=O)NC1CC1
 : 0.94, 61.5*, -1.7, 117.2, 107.8*, i, 4.2
57. COC(=O)c1cc2ccsc2n1Cc1nc(-c2ccc(OC)cc2)oc1C
 : 0.89, -22.2, -2.1, 102.9, 84.0, i, 8.4
58. COc1ccccc1NC(=O)NCc1nc(-c2ccc(C(F)(F)F)cc2)no1
 : 0.99, ·, ·, 104.9, ·, i, ·
59. C=CCn1c(=O)c2ccc(C(=O)NCc3ccccc3)cc2n(Cc2ccc(Cl)cc2)c1=O
 : 0.88, ·, -0.8, 101.3, ·, i, 0.0
60. CNc1ccc(Br)cc(C(=O)/C=C/c2ccc(OC)cc2)c1=O
 : 1.09, 14.3, -1.6, 85.4, 141.7, i, -1.7

The results go on.
Second line of a record: HSV replic up primary fold, Insulin prom inh, GALR2 agonist, RGS16-Gao HTS, Insulin prom inh cell count, HSV replic up, PKD1 kinase inh
61. O=C1CCC/C(=N\NC(=O)c2ccc(NS(=O)(=O)c3ccc(Br)cc3)cc2)C1
 : 0.88, 21.4, -1.0, 95.7, 84.3, i, -0.1
62. COc1ccc(C(=O)Oc2cc(/C=N/NC(N)=S)ccc2OC)cc1
 : 1.04, ·, -3.0, 96.9, ·, i, -2.3
63. O=c1c2cc(NC(=S)N3CCCCCC3)ccc2nc2n1CCCCC2
 : 0.83, ·, ·, 106.0, ·, i, 5.3
64. COc1ccc(OC)c(NC(=O)c2sc3nc(Cc4ccccc4)cc(C(F)(F)F)c3c2N)c1
 : 1.31, 10.3, -1.1, 104.9, 104.7, i, -12.8
65. Cc1ccc(C(=O)NC(=S)NCCCN2CCOCC2)cc1
 : 0.92, ·, ·, 98.3, ·, i, 2.5
66. CCOC(=O)n1c(SCC(N)=O)nc2ccccc21
 : 0.96, -21.1, -0.2, 102.1, 92.9, i, 1.3
67. Cc1cc(Cl)ccc1NC(=O)C1CCCN1C(=O)c1cccs1 (stereo unspecified)
 : 0.97, -34.4, -1.4, 324.8, 84.3, i, -1.8
68. O=c1c2ccc(Cl)cc2[nH]c(=S)n1CCC1=CCCCC1
 : 0.96, -10.7, -0.8, 97.5, 156.1, i, -1.3
69. CSc1ccc(/C=C(\C#N)C(=O)NC2CCCCC2)cc1
 : 0.96, 31.2, -1.0, 110.8, 120.7, i, 2.3
70. CN=C(C)/C(C(=O)OC)=C(/O)c1ccccc1F
 : 1.06, ·, ·, 101.0, ·, i, ·
71. COc1ccccc1NC(=S)N1CCN(c2ccccn2)CC1
 : 0.94, 50.0, -2.2, 107.7, 103.5, i, 1.5
72. CCN1CCN(C(=O)c2nn(-c3ccc(C)cc3)c(=O)c3c2c2ccccc2n3C)CC1
 : 0.88, -7.4, 0.3, 101.4, 47.3, i, -8.3
73. O=C(O)CCC(=O)Nc1nc2ccc([N+](=O)[O-])cc2s1
 : 0.95, -92.9, ·, 117.7, 112.7, i, -9.9
74. CCCCN(C)CCNC(=O)CSCc1ccc(C)cc1
 : 1.25, 16.7, ·, 101.0, 103.5, i, -13.8
75. CCOC(=O)/C(=N\Nc1ccccc1[N+](=O)[O-])c1csc(Nc2ccccc2)n1
 : 0.91, 0.0, ·, 105.8, 185.0, i, -0.6

Already shown: an excerpt of the list.
Second line of a record: HSV replic up primary fold, Insulin prom inh, GALR2 agonist, RGS16-Gao HTS, Insulin prom inh cell count, HSV replic up, PKD1 kinase inh
61. O=C1CCC/C(=N\NC(=O)c2ccc(NS(=O)(=O)c3ccc(Br)cc3)cc2)C1
 : 0.88, 21.4, -1.0, 95.7, 84.3, i, -0.1
62. COc1ccc(C(=O)Oc2cc(/C=N/NC(N)=S)ccc2OC)cc1
 : 1.04, ·, -3.0, 96.9, ·, i, -2.3
63. O=c1c2cc(NC(=S)N3CCCCCC3)ccc2nc2n1CCCCC2
 : 0.83, ·, ·, 106.0, ·, i, 5.3

From PubChem
